# Screens deposited in PubChem BioAssay by several laboratories.
# ALR H2O2 inh: inhibitors of human ALR sulfhydryl oxidase, primary screen, biochemical, H2O2 detection, HRP-luminol luminescence, single point. purified ALR, DTT oxidation. inhibition, % (test concentration not listed). 290,000 compounds, 3.8% hits. AID 485317, 2010;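 active means mean and each replicate at 75% or more; inconclusive means only one of the two met; inactive means neither met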;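 further: stock transfer was 7.5 nL into about 7.5 µL; 0% = neutral wells and 100% = wells with inactivated enzyme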
# Calb FLC: C. albicans growth inhibition with fluconazole, primary screen, CaCi-2 strain, Alamar Blue fluorescence; 300,000 compounds, 0.57% hits; AID 1979, 2009; C. albicans CaCi-2 (fluconazole-resistant clinical isolate) + fluconazole, 48 h; growth inhibition, % (test concentration not listed);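 active means most replicates above 75%; inconclusive means exactly half above 75%; inactive means most below 75%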;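 further: all wells also contain fluconazole at 8 µg/ml as a sub-toxic cotreatment; 0% = median of DMSO wells and 100% = median of geldanamycin control wells; wells of about 8 µL received 7.5 nL stock; the first replicate is given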
# A1 inh: caspase 3/7 activation in MEF A1-2A-BIM cells, primary screen, A1 inhibitor project, cell-based, luminescence, HTS; 330,000 compounds, 0.066% hits; caspase activation, % (concentration not given with the values); AID 2462, 2010; Caspase-Glo 3/7 luminescence, 3 h; percent of clofoctol response, vehicle zero;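 active means over half of replicate activation scores above 10%, or exactly half above 10 with the replicate mean above 10; inconclusive means replicate mean below 10 yet half the replicates above 10; inactive means over half of replicates below 10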;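 further: wells of about 30 µL received 50 nL stock; many hits fall short of the cut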
# LANA-H2A inh: blockers of LANA interaction with H2A/H2B – biochemical, FP readout, HTS, primary screen; Protein LANA1 (Human herpesvirus 8 type P (isolate GK18)), Q9QR71; cell-free LANA-H2A/H2B peptide, fluorescence polarization; inhibition, % (concentration not given with the values); 320,000 compounds, 0.6% hits; in the data active means inhibition mostly above about 10%, no sharp cut-off; inactive means mostly below about 6.7%;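 further: stock transfer was 7.5 nL into about 10 µL; 0% = median of vehicle wells and 100% = median of positive control wells; one replicate is shown; the record names a cut of 25% in any replicate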
# Target sequence (Q9QR71 whole entry, looked up): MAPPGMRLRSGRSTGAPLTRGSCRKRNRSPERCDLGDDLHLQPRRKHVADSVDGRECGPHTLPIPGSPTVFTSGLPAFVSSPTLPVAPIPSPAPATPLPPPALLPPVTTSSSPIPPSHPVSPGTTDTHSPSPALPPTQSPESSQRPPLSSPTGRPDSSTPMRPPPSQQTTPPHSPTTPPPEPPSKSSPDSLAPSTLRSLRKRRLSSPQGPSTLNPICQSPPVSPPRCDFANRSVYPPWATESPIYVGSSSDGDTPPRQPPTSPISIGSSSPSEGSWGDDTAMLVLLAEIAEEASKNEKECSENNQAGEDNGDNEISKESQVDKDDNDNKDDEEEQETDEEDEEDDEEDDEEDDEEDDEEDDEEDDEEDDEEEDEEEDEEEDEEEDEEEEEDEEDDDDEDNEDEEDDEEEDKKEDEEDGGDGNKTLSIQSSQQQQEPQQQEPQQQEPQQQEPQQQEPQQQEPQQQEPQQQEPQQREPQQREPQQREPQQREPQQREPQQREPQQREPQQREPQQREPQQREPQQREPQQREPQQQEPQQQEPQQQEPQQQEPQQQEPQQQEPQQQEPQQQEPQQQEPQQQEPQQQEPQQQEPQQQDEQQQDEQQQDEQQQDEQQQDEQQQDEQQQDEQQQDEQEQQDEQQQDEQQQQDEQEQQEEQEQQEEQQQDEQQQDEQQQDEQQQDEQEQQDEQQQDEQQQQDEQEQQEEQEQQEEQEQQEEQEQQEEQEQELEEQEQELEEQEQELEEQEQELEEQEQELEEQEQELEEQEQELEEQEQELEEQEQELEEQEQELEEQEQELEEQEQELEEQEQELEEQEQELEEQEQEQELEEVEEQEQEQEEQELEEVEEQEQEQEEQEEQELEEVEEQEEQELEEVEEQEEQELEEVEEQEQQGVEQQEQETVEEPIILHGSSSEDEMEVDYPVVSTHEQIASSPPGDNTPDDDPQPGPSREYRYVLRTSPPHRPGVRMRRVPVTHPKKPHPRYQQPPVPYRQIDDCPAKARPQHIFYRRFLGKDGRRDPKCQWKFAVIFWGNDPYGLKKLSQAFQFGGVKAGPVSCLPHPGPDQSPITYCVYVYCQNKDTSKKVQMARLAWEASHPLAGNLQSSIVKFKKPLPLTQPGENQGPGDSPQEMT
# Beta apoptosis: inhibitors of cytokine-induced beta cell apoptosis, primary screen, luminescence; protection from apoptosis, % (no concentration beside the values); INS-1E cytokine-induced death, ATP luminescence, 48 h; percent of positive-control rescue, neutral wells zero; 300,000 compounds, 0.8% hits;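 active means all replicates at 75% or more, or half of them and the mean; inconclusive means half reach 75% but not the mean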;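 further: 0% = cytokine-treated negative control wells and 100% = positive control rescue; higher means more ATP so stronger rescue from cytokine killing; wells of about 40 µL received 100 nL stock; the first replicate is given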
# T cruzi inh: inhibitors of intracellular T. cruzi growth, primary screen, luminescence, NIH3T3 host cells; T. cruzi beta-gal in NIH3T3, 90 h; 300,000 compounds, 1.4% hits; inhibition, % (test concentration not listed);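 active means mean inhibition across valid replicates above about 55%, limit read from the data; inconclusive means mean below that limit but half or more replicates reach it; inactive means mean below it, under half of replicates reach it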;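 further: signal also drops with host cell toxicity which is not excluded here; 0% = plate median of DMSO wells and 100% = zero luminescence signal; higher percent means less beta-gal luminescence so fewer parasites; stock transfer was 50 nL into about 50 µL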
# rRNA inh HTS: reduced GFP signal of wild-type E. coli, primary screen, bacterial rRNA inhibitor project, GFP/RFP fluorescence, OD600, single point. E. coli WT GFP vs humanized-ribosome RFP mutants, 24 h; stronger effect = lower value; DMSO median 0, no signal -100. GFP signal change (wild-type ribosome), % (test concentration not listed). 350,000 compounds, 1.6% hits;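 active means significant combined selectivity score with lowered wild-type GFP, culture density cut under 30%, mutant RFP and density less affected; inactive means any of these conditions unmet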; further: one replicate is shown; some compounds called inactive have numbers as strong as hits
# B2AR ag: beta2AR agonists driving receptor internalization, primary screen, cell-based, FAP fluorogen, flow cytometry | AID 504454, 2011 | Am2.2-beta2AR cells; reference of the scale not given here | Beta-2 adrenergic receptor (Homo sapiens), P07550 | 340,000 compounds, 0.43% hits | response, % (test concentration not listed);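 active means response above a set limit, near 3 SD of response in nonfluorescent compounds, cut at about 42% in these data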;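 further: stock transfer was 100 nL into about 11 µL; a reference agonist was the positive control; negative values mostly stem from fluorescent compounds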
# rRNA inh HTS OD600: second read-out of rRNA inh HTS, no call of its own (marks repeat the call); OD600 change, %; measured here: OD600 growth;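 optical density of the mix in the first replicate; 0 = DMSO median and -100 = no signal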
# rRNA inh HTS RFP: second read-out of rRNA inh HTS, no call of its own (marks repeat the call); RFP signal change, %; measured here: RFP humanized mutant strains;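 first replicate; 0 = DMSO median and -100 = no signal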
# Starred values were filed as active, the others as inactive; ? = inconclusive; / = not tested or not shown; & = joins results of further samples. These rows are one share of the data (hit frequency here may not be typical).
SMILES	rRNA inh HTS	Calb FLC	Beta apoptosis	LANA-H2A inh	A1 inh	ALR H2O2 inh	B2AR ag	T cruzi inh	rRNA inh HTS RFP	rRNA inh HTS OD600
CC(Cc1ccccc1)NC(=O)CN1C(=O)c2ccccc2S1(=O)=O (centres undefined)	7.1	-3.7	/	-9.5	0.7	-1.9	10.5	-8.6	-2.4	2.5
CCc1noc(C)c1C(=O)NNC(=O)c1ccc(N(CC)CC)cc1	-3.2	/	2.8	-5.2	1.1	5.6	2.9	/	-2.8	-5.1
CC(=O)N1CCN(S(=O)(=O)c2cccc(C(=O)Nc3ccc(OC(F)F)cc3)c2)CC1	3.2	-0.1	4.3	2.5	1.4	/	-0.6	9.6	3.4	5.9
Cc1ccc(C(C2C(=O)CC(C)(C)CC2=O)C2C(=O)CC(C)(C)CC2=O)s1	/	/	-0.8	2.7	0.8	?	13.2	-3.6	/	/
O=C(O)C1CCN(C(=O)COc2ccc3c(c2)oc(=O)c2ccccc23)CC1	0.7	-3.4	/	6.0	0.0	-24.5	-0.6	-22.7	-7.8	-3.5
COC(=O)c1[nH]c2ccc(Cl)cc2c1NC(=O)CCN1CCOCC1	/	5.7	0.2	2.4	0.2	-4.9	1.7	-1.7	/	/
Cc1oc(-c2cc(Cl)cc(Cl)c2)cc1C(=O)NCCc1ccccc1	/	5.9	-4.9	7.6	0.1	6.5	13.0	-4.4	/	/
Cc1ccc(C(=O)N(CN2CCCC2=O)c2ccccc2)cc1	8.9	-5.2	-3.1	1.4	-0.6	-0.3	0.8	-5.9	-0.3	8.4
CCCCCCCCC(NC(=O)c1ccc(C#N)cc1)C(=O)NCCC (centres undefined)	10.1	/	5.2	3.3	-0.8	-11.8	-1.5	/	-1.5	5.6
CCNC(=S)N/N=C(\C)c1cccc([N+](=O)[O-])c1	1.1	26.2	-4.5	0.8	0.4	-8.1	-8.8	-20.8	-1.6	1.1
COc1ccc(/C=N/NC(=O)C(=O)N2CCCC2)cc1OC	/	-7.1	0.6	/	1.1	/	0.1	-13.2	/	/
COc1ccc(NC(=O)Nc2cccc3c2O[C@H](CN(C)S(=O)(=O)c2ccc(F)cc2)[C@@H](C)CN([C@H](C)CO)C3=O)cc1	-1.3&-13.4	/	1.8	3.2	-0.4	-1.9	2.7	/	0.3&15.2	-4.0&-18.1
CC(=O)c1c(C)[nH]c(C(=O)OCC(=O)Nc2cccc(S(=O)(=O)N3CCCC3)c2)c1C	/	-3.8	29.9	-2.7	2.2	-0.3	8.9	-17.7	/	/
CCOC(=O)c1c(NC(=O)CSc2nnnn2C)sc(CC)c1C	/	19.5	9.7	3.3	0.1	5.8	-7.7	23.0	/	/
CCOC(=O)c1c(-c2ccccc2)csc1NC(=O)C1CCCO1 (centres undefined)	/	2.9	5.7	-2.4	-0.7	/	-0.4	?	/	/
COC(=O)/C(C#N)=C/c1c(Oc2cccc(C)c2)nc2ccccn2c1=O	12.2	-3.1	-2.0	-6.5	0.7	-26.2	-1.5	-1.9	2.5	15.0
COCCCN1C(=O)c2ccc(C(=O)OCC(=O)NCc3ccccc3OC)cc2C1=O	3.4	2.4	0.8	-3.1	1.0	1.7	-7.5	-16.5	-4.2	3.2
C[C@]12CCC(=O)C=C1CC[C@@H]1[C@@H]2[C@@H](O)C[C@@]2(C)[C@H]1CC[C@]2(O)C(=O)CO	/	/	-1.9	2.7&-12.3	-0.4	-3.1	-1.3&1.5	9.3	/	/
CCOCCCNC(=O)c1ccc2c(c1)N=C(CC)c1cc(Br)ccc1S2	-11.9	-6.1	29.7	3.4	3.5	-36.9	26.2	36.5	10.3	-14.9
COc1cc(CCC(=O)OCC(=O)Nc2ccc(F)cc2F)cc(OC)c1OC	1.0	9.4	/	-4.2	-1.0	-6.3	0.4	-10.3	1.4	-2.2
CC(=O)Nc1ccc(S(=O)(=O)N2CCCC3CCCCC32)cc1 (centres undefined)	-3.7	/	0.2	0.0	3.6	2.7	-1.6	/	-1.8	-6.2
CCC(C)(C)NC(=O)CN(Cc1ccc2c(c1)OCO2)C(=O)CCC(=O)Nc1ccccn1	/	1.7	-0.3	0.2	2.1	0.0	-2.8	5.7	/	/
CSc1ncccc1C(=O)NCC(c1ccco1)N1CCCCC1 (centres undefined)	2.8	/	-20.2	-1.9	-0.9	-3.8	-0.5	/	-4.6	8.1
COCC(CN1CCN(C2=NS(=O)(=O)c3ccccc32)CC1)OC(=O)c1ccc(OC)cc1 (centres undefined)	5.3	-19.0	-2.3	3.2	0.1	-7.6	2.3	-14.6	2.7	3.1
O=C(CC1(O)C(=O)Nc2ccccc21)c1ccc(-n2cnnn2)cc1 (centres undefined)	6.9	-23.1	-3.0	1.4	-0.1	-15.6	-7.5	-14.0	-2.0	3.3
NC(=S)Nc1cccc2[nH]ccc12	13.7	-13.5	-3.2	-3.6	-0.5	26.1	3.3	64.0*	6.4	18.4
O=C1c2ccccc2C(Nc2ccc3c(c2)OCO3)N1Cc1ccc2c(c1)OCO2 (centres undefined)	-2.0	4.6	7.2	-3.0	0.0	8.6	-1.6	20.3	0.2	-7.2
COc1ccccc1NS(=O)(=O)c1ccc(C(=O)Nc2ncccc2O)cc1	/	/	10.6	1.5	-0.1	1.8	-1.7	/	/	/
C/C(=N\NC(=O)CCc1ccc(S(=O)(=O)N2CCOCC2)cc1)c1ccccc1Cl	-11.4	6.1	-1.3	-5.1	-0.6	98.5*	5.1	10.0	-4.1	-18.9
CC(=O)c1ccc(N2CCN(C(=O)/C=C/c3ccc4ccccc4n3)CC2)cc1	3.2	37.6	-2.6	3.5	-0.3	-6.2	1.4	28.0	-6.4	9.1
CCCn1c(C(O)c2cccc(OC)c2)nc2ccccc21 (centres undefined)	-3.8	8.3	/	/	/	/	1.1	3.3	-0.2	-15.6
CN(C)c1ccc(/C=C(\NC(=O)c2ccccc2)C(=O)NCCN2CCOCC2)cc1	1.6	1.5	2.6	-11.4	0.4	/	0.0	-6.1	-2.5	1.4
COc1ccc2ccc(=O)oc2c1CC(O)C(C)(C)O (centres undefined)	/	-5.2	/	0.4	0.2	-23.3	-10.2	-0.4	/	/
CCn1c(SCC(=O)NCC2CCCO2)nnc1-c1ccc(Cl)cc1 (centres undefined)	10.4	-12.4	-4.4	-6.0	0.1	-3.8	7.2	2.7	-2.0	9.6
Cc1ccc(S(=O)(=O)N2CCN(C(=O)C3Cc4ccccc4CN3C(=O)c3ccco3)CC2)cc1 (centres undefined)	/	2.3	-5.9	1.4	0.3	-7.3	1.6	16.0	/	/
N#Cc1ccc(S(=O)(=O)NCC(=O)OCC(=O)N2CCCC2=O)cc1	6.5	-0.2	-6.6	5.0	0.1	-0.9	-0.8	8.7	-3.5	11.7
CC(Cc1ccccc1)C(=O)NCCO (centres undefined)	3.0	10.4	-1.4	0.9	-0.3	2.5	2.2	-18.0	19.4	15.3
O=C(NCCC1=CCCCC1)c1ccc(F)c(S(=O)(=O)N2CCOCC2)c1	/	-2.1	0.2	1.9	-0.1	-0.3	-3.6	-0.4	/	/
CCN(CC)c1ncnc2sc(C(=O)N3CCN(c4ccccc4)CC3)c(C)c12	/	2.4	1.3	0.6	-0.3	-27.4	-2.2	24.0	/	/
Cc1cc(F)ccc1NC(=O)c1cc(S(=O)(=O)N2CCOCC2)cn1C	14.1	8.7	-4.6	2.5	0.0	-2.0	2.0	1.5	-1.0	7.6
CC(=O)c1ccc(OCC(=O)NCc2ccc(F)cc2)cc1	1.5	-12.5	-0.6	0.2	1.5	-5.2	0.3	-5.2	1.5	-0.6
COc1cc(/C=C/c2ccc3c(Br)cc(Br)c(O)c3n2)ccc1O	18.0	-1.2	63.2	-0.6	0.2	15.3	-10.2	50.0	2.3	11.8
Cc1cccc(NC(=O)CSc2ccc(-c3ccco3)nn2)c1	/	-33.7	-0.6	0.3	0.3	41.5	-9.6	-4.1	/	/
Cn1cc(Br)c(-c2cccc(NC(=O)CCC(=O)O)c2)n1	19.0	4.8	-4.2	-3.1	0.4	-3.4	-0.7	-8.4	2.3	12.0
CC12CCC(C(=O)N(CC(O)CN3CCCCC3)C1=O)C2(C)C (centres undefined)	/	-1.6	-6.8	3.4	-0.2	-1.9	6.5	-5.5	/	/
CC1CCCCC1NS(=O)(=O)CCNC(=O)c1ccccc1 (centres undefined)	7.6	-5.4	6.4	0.3	-1.0	1.4	-1.0	4.8	0.8	0.8
O=C(CCCn1c(=S)[nH]c2cc3c(cc2c1=O)OCO3)N1CCN(c2ccc(F)cc2)CC1	/	8.7	3.8	-3.7	-0.8	9.6	-5.2	5.2	/	/
CCn1nc(C)cc1C(=O)Sc1cccc(Cl)c1	5.6	-14.7	-23.7	-3.9	-0.8	/	0.8	10.4	-1.6	8.5
CC(C)(C)NC(=O)CC(c1ccccc1)c1ccccc1O (centres undefined)	/	5.2	-3.4	5.3	0.0	16.6	4.9	-10.9	/	/
COC(=O)[C@@H]1C[C@H]2CC[C@H](O)C[C@H]2N1Cc1ccc(Cl)cc1	9.0	-2.8	-0.5	0.9	0.0	/	3.9	-17.3	4.4	6.7
NC(=O)c1sc(-c2ccsc2)cc1NS(=O)(=O)c1ccc(C(F)(F)F)cc1	10.7	14.1	12.6	2.6	0.8	-0.3	-3.5	-21.6	11.9	-6.3
CCN(CC)c1ccc(/C=N/N2CCN(Cc3ccc(C)cc3C)CC2)c(O)c1	/	5.1	2.3	1.3	0.2	36.2	4.3	12.0	/	/

# Retrieved by compound from the list above, three records:
SMILES	rRNA inh HTS	Calb FLC	Beta apoptosis	LANA-H2A inh	A1 inh	ALR H2O2 inh	B2AR ag	T cruzi inh	rRNA inh HTS RFP	rRNA inh HTS OD600
CC(=O)Nc1ccc(S(=O)(=O)N2CCCC3CCCCC32)cc1 (centres undefined)	-3.7	/	0.2	0.0	3.6	2.7	-1.6	/	-1.8	-6.2
CCOC(=O)c1c(NC(=O)CSc2nnnn2C)sc(CC)c1C	/	19.5	9.7	3.3	0.1	5.8	-7.7	23.0	/	/
CCn1nc(C)cc1C(=O)Sc1cccc(Cl)c1	5.6	-14.7	-23.7	-3.9	-0.8	/	0.8	10.4	-1.6	8.5
